NPYLR7 agonist = agonists of mosquito NPYLR7 receptor, primary screen, cell-based, Aedes aegypti, calcium fluorescence, mosquito biting behavior. AID 1259423, 2018. Aedes aegypti neuropeptide Y-like receptor 7 (NPYLR7). 0.15% of 270,000 active. HEK293T NPYLR7/Galpha15, GCaMP6s calcium fluorescence. activation, % at 10 µM; in the data active = activation above about 40%;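 note: 0% = vehicle and 100% = reference agonist at the receptor; some compounds past the cut are filed as inactive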
NPYLR7 agonist max-min = second read-out of NPYLR7 agonist, no call of its own (marks repeat the call); activation, %; measured here: Max-Min RFU normalised activation; some inactives read as strong as hits;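 span of the calcium signal over five minutes; 0% = vehicle and 100% = native peptide agonist; compound fluorescence can raise it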
Active calls of the source: *. Not all compounds are listed; rates above refer to the full screens.

SMILES | NPYLR7 agonist | NPYLR7 agonist max-min
COc1ccc(-c2cnc3ncnn3c2N2CCCN(S(=O)(=O)c3ccccc3C(F)(F)F)CC2)cc1 | -0.5 | -2.9
COc1ccc(C(=O)N2CCN(c3ncccc3C(=O)NCCc3ccc(OC)c(OC)c3)CC2)cc1F | 19.5 | 6.2
Cc1cn(S(=O)(=O)c2cc([N+](=O)[O-])ccc2C)cn1 | 0.8 | -0.1
CC(C)CC(=O)N1CCC(CN2C(=O)CSC2c2ccc(Cl)c(Cl)c2)CC1 (stereo unspecified) | 0.8 | 5.4
CCOc1ccc(C(=O)Cn2nc(-c3ccco3)c3sc(C)nc3c2=O)cc1 | 0.4 | -2.5
COc1ccc(NC(=O)CCC2CCN(C(=O)c3ccc(OC)o3)CC2)c(OC)c1 | 7.5 | 2.9
CC(C)N1CCC(CNC(=O)CC2=CCCCC2)C1 (stereo unspecified) | 23.3 | 9.9
COc1cccc(NC(=O)c2c(C)oc(C)c2-c2ccc(C)cc2)c1 | 50.1 | 24.2
COc1ccc(N2CC(C(=O)Nc3cc(-c4cccs4)nn3-c3nc(C)cc(=O)[nH]3)CC2=O)cc1 (stereo unspecified) | 0.4 | -2.0
Cc1ccc(NC(=O)C2(C)CCN2C(=O)c2ccco2)cc1 (stereo unspecified) | 1.0 | 0.6
Cc1nc(C)c(Cc2cccc(C(F)(F)F)c2)c(N2CCN(S(=O)(=O)c3ccc(F)cc3)CC2)n1 | 1.9 | 13.3
CC(C)C(C(=O)N1CCOC(COc2ccc(F)cc2)C1)c1ccccc1 (stereo unspecified) | 21.7 | 27.4
COc1ccc(-c2cnc(-c3ccc(CNC(=O)c4cccnc4Sc4ccccc4)cc3)[nH]2)cc1 | 4.2 | 4.3
CC(C)(C)NC(=O)NC(=O)CN1CCCC1CC(=O)c1ccco1 (stereo unspecified) | 0.2 | -0.8
O=C(c1ccco1)N1N=C(c2ccc(Cl)cc2)CC1c1ccc2nccnc2c1 (stereo unspecified) | 1.3 | 9.7
Cn1c2ccccc2n2c(=S)[nH]nc12 | -4.9 | -7.5
CCS(=O)(=O)c1ccc(NCc2cc3c(cc2Br)OCO3)cc1 | 6.6 | 5.5
CCOC(=O)c1c(N)sc(C(=O)OC)c1C | 6.4 | 2.6
Cc1cc(CNc2cc(Cl)ccc2Cl)no1 | 0.9 | 0.3
COc1cc(OC)c(C2Nc3ccccc3N=C3CC(C)(C)CC(=O)C32)cc1OC (stereo unspecified) | -4.3 | -8.7
CC1(C)[C@H]2CC[C@@H](CNC(=O)c3ccc[nH]c3=O)[C@@H]1C2 | 9.8 | 8.5
CN(CCc1cnn(C)c1)c1nc2nonc2nc1N1CCOCC1 | 15.4 | 5.3
O=c1c2cnc(N3CCOCC3)nc2ccn1CCN1CCOCC1 | 0.7 | 3.7
CCn1c(Cc2ccccc2)nnc1SCc1ccc(C(=O)NCc2cccc(C(F)(F)F)c2)cc1 | 3.4 | 8.9
CC(=O)Nc1c2c(nn1CC(=O)NCc1ccc(F)cc1)CSC2 | -4.3 | -3.3
CC(C)Cc1cc(CNC(=O)c2c(O)cccc2O)on1 | -3.7 | -6.8
CCCc1c(C(=O)N(C)Cc2ccccc2)cnn1-c1cccc(C)c1 | 34.6 | 28.6
COc1cccc(C2CCCCN2Cc2nc(COc3ccccc3)no2)c1 (stereo unspecified) | 21.5 | 17.1
O=C(NCCN1CCN(c2nc(Cc3ccc(F)cc3)ns2)CC1)c1ccc([N+](=O)[O-])cc1 | -3.0 | 1.7
O=C1NC(=S)NC(=O)C1=Cc1ccccc1F | 0.0 | -6.0
CCc1nc2ccc(C(=O)N3CCN(C(C)=O)CC3)cn2c1N(C)CCCc1ccccc1 | 16.1 | 9.1
CC(C)(C)c1ccc(-n2c(=O)[nH]c3c(C(N)=O)nc(-c4ccc(F)cc4)nc32)cc1 | -5.0 | -7.9
COCCNC(=O)C1(C)CCCN(Cc2ccc3ccccc3n2)C1 (stereo unspecified) | 5.6 | 4.3
CCOC(=O)c1nn(-c2cccc(C(F)(F)F)c2)cc1O | -0.7 | 1.2
CC(=O)Nc1ccc(OC(F)(F)C(F)F)c(NC(C)=O)c1 | 0.4 | -1.5
Cc1n[nH]c(=O)c2c(NC(=O)CSc3nnc(NC4CC4)s3)oc(C)c12 | 8.0 | 13.0
CCOc1ccccc1CNc1nnnn1C | 16.4 | 6.8
CC(COc1ccccc1)NC1CCN(S(=O)(=O)c2ccccc2)CC1 (stereo unspecified) | -1.3 | -2.1
Cc1ccc(N2CC(C)Cn3c2nc2c3c(=O)n(CC(=O)OCc3ccccc3)c(=O)n2C)cc1 (stereo unspecified) | -0.8 | 0.4
C=CCOc1ccc(Oc2cc(C)nc(SC)n2)nn1 | -3.8 | -2.8
OC(COCc1cccs1)Cn1nnc(-c2ccccc2)n1 (stereo unspecified) | 3.7 | 2.5
COc1cccc(-c2cc(C(=O)N3CCN(c4ccc([N+](=O)[O-])cc4)CC3)n(-c3cc(C)ccc3C)n2)c1 | -1.2 | -1.0
CCN1CCc2c(OCC(=O)N3CCC(C)CC3)cccc2C1=O | 19.2 | 13.0
CCOC(=O)C(NC(=O)C1CC1)c1c(C)nn(-c2ccccc2)c1C (stereo unspecified) | 0.3 | 1.9

Sorted by count of non-hydrogen atoms (largest number first): part of the list above.
SMILES | NPYLR7 agonist | NPYLR7 agonist max-min
COc1cccc(-c2cc(C(=O)N3CCN(c4ccc([N+](=O)[O-])cc4)CC3)n(-c3cc(C)ccc3C)n2)c1 | -1.2 | -1.0
Cc1ccc(N2CC(C)Cn3c2nc2c3c(=O)n(CC(=O)OCc3ccccc3)c(=O)n2C)cc1 (stereo unspecified) | -0.8 | 0.4
Cc1n[nH]c(=O)c2c(NC(=O)CSc3nnc(NC4CC4)s3)oc(C)c12 | 8.0 | 13.0
CCOC(=O)C(NC(=O)C1CC1)c1c(C)nn(-c2ccccc2)c1C (stereo unspecified) | 0.3 | 1.9
C=CCOc1ccc(Oc2cc(C)nc(SC)n2)nn1 | -3.8 | -2.8
CCOc1ccccc1CNc1nnnn1C | 16.4 | 6.8

Reformatted: results already given
Compound,NPYLR7 agonist,NPYLR7 agonist max-min
CCOC(=O)C(NC(=O)C1CC1)c1c(C)nn(-c2ccccc2)c1C (stereo unspecified),0.3,1.9
OC(COCc1cccs1)Cn1nnc(-c2ccccc2)n1 (stereo unspecified),3.7,2.5

High-throughput results: PubChem, Fisher Drug Discovery Resource Center
